StopGo reporter – FMDV 2A StopGo reporter, luciferase signal; actives 1.2% (n = 410,000); human cells with a luciferase reporter of 2A StopGo recoding; control for the full effect not named in the record; Potency, µM (series often up to 57.9 µM), for inactives: at the highest dose signal change, negative = less light; active = well fitted falling curve with a large enough effect; inconclusive = small, poorly fitted or top-dose-only effect; inactive = no such curve, though single readings can be large or run the other way; tested in HEK293T cells; note: % is set by controls: 0 for no effect and ±100 for the full control effect; nearly all actives have a fitted effect of over 45% in size; luciferase light after 4 h
SARS PLpro yeast – SARS-CoV PLP inhibition in yeast; AID 485353; actives 0.19% (n = 330,000); Potency, µM (doses to about 32.9 µM), without a hit: at the highest dose activity, positive = growth rescue; S. cerevisiae expressing SARS-CoV PLpro, growth rescue; control for the full effect not named in the record; active means well fitted rising curve with a large enough effect; inconclusive means small, poorly fitted or top-dose-only effect; inactive means no such curve, though single readings can be large or run the other way; note: 0% is about no effect; nearly all actives have a fitted effect of over 55% in size; growth read by luminescence after 48 h
RE007 growth inh – less growth of the S. pombe RE007 Vpr strain; S. pombe RE007 Vpr strain, BacTiter-Glo ATP luminescence, 24 h; control for the full effect not named in the record; Potency, µM (titrated, usually from 92.2 µM), without a hit: top-dose activity change, negative = less growth; actives 0.21% (n = 360,000); active = well fitted falling curve with a large enough effect; inconclusive = small, poorly fitted or top-dose-only effect; inactive = no such curve, though single readings can be large or run the other way;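 note: % is set by controls: 0 for no effect and ±100 for the full control effect; nearly all actives have a fitted effect of over 50% in size; the assay follows cell death caused by Vpr and the record does not say whether a fall means rescue or toxicity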
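Fission yeast RE007 carrying one integrated HIV-1 vpr copy, seeded at OD 0.01 in PMG+AL medium with 23 nL pinned compound. Grown 24 h at 30 degrees; viability read by BacTiter-Glo luminescence after 5 min.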
The depositor's hits bear a star; u = inconclusive; [ ] = remark or other dose. Potency is the fitted concentration of half-maximal effect.

SMILES | StopGo reporter | SARS PLpro yeast | RE007 growth inh
Cc1ccc(S(=O)(=O)N2CCN(C(=O)Cn3cnc4c3c(=O)n(C)c(=O)n4C)CC2)cc1C | -1% | 1% | -2%
Cc1ccc(S(=O)(=O)N2CC(O)C2)cc1 | -15% | -2% | 2%
COc1ccc(C2CC(c3cccc(C(F)(F)F)c3)=NN2c2ccc(S(N)(=O)=O)cc2)cc1 (stereo not drawn) | 0% | 5% | -5%
Cc1csc(=O)n1CC(=O)OCc1nnc(-c2ccc([N+](=O)[O-])cc2)o1 | -8% | -1% | -5%
COC(=O)[C@@]1(Cc2ccccc2)[C@H]2C(=O)N(Cc3ccccc3)C(=O)[C@H]2[C@H]2CN=C(SCc3ccc(C#N)cc3)N21 | -25% | -7% | -5%
C#CCOCCOCCOCCNc1nc(N2CCN(C(=O)CCCCCCCCCCNC(=O)[C@@H](CCC(=O)O)n3cc(CCCCCN)nn3)CC2)nc(N2CCN(C(=O)CCCCCCCCCCNC(=O)[C@H](CCCCN)n3cc(C[C@@H](C)CC)nn3)CC2)n1 | -25% | 2% | 4%
C[C@@H](NC(=O)c1[nH]cnc1C(=O)Nc1ccon1)c1ccccc1 | -23% | -3% | 0%
COc1ccc2cc(CCOC3CCCCO3)ncc2c1 (stereo not drawn) | -9% | 0% | 1%
COc1ccc(-c2noc(COC(=O)c3ccco3)n2)cc1OC | 1% | 2% | u
COc1ccccc1NC(=S)N1CCN(C(c2ccccc2)c2ccccc2)CC1 | -20% | 12% | -10%
CC(C)(C)OC(=O)C[C@@H]1C/C=C\C[C@@H](CC(=O)N[C@H](CO)Cc2ccccc2)C(=O)NC[C@@H](c2ccccc2)OC1=O | -29% | 5% | -4%
Cc1cccc(Nc2nnc(SCC(=O)NC(=O)CN3CCCC3=O)s2)c1 | 36%[activator] | -1% | -1%
COc1ccc([C@@H]2CC=C(C(=O)O)[C@H](c3ccc(Br)cc3)N2S(=O)(=O)c2ccccc2C)cc1 | -1% | 1% | 1%
Cc1ccc(C)c(S(=O)(=O)Nc2ccc(C(=O)N3CC(C)OC(C)C3)cc2)c1 (stereo not drawn) | 44%[activator] | -12% | -9%
CCN(C[C@H]1N[C@@](Cc2ccccc2)(C(=O)OC)[C@H]2C(=O)N(Cc3ccccc3)C(=O)[C@@H]12)C(=O)Nc1ccc(C)cc1 | 11% | -8% | -2%
COc1ccc(-c2nn(-c3ccccc3)cc2C(=O)NC(=S)NNC(=O)c2ccncc2)cc1 | 0% | 5% | 0%
O=C(OCC(=O)c1ccc[nH]1)c1ccc(F)c(S(=O)(=O)N2CCOCC2)c1 | -21% | 1% | 8%
CCOc1ccc(NC(=O)CNc2cccc(S(=O)(=O)N3CCCCCC3)c2)cc1OCC | u | 4% | -3%
C=CCN=C1S/C(=C\N(C)C)C(=O)N1S(=O)(=O)c1ccc(C)cc1 | 10% | -1% | 1%
Cc1ccccc1-c1cc(C(=O)NCc2cccc(Br)c2)nn1CC1CC(c2cccc([N+](=O)[O-])c2)=NO1 (stereo not drawn) | -7% | 1% | 15%

Part of the list above, showing only StopGo reporter and SARS PLpro yeast:
smiles	StopGo reporter	SARS PLpro yeast
CCN(C[C@H]1N[C@@](Cc2ccccc2)(C(=O)OC)[C@H]2C(=O)N(Cc3ccccc3)C(=O)[C@@H]12)C(=O)Nc1ccc(C)cc1	11%	-8%
Cc1cccc(Nc2nnc(SCC(=O)NC(=O)CN3CCCC3=O)s2)c1	36%[activator]	-1%
COc1ccc([C@@H]2CC=C(C(=O)O)[C@H](c3ccc(Br)cc3)N2S(=O)(=O)c2ccccc2C)cc1	-1%	1%
O=C(OCC(=O)c1ccc[nH]1)c1ccc(F)c(S(=O)(=O)N2CCOCC2)c1	-21%	1%
Cc1ccccc1-c1cc(C(=O)NCc2cccc(Br)c2)nn1CC1CC(c2cccc([N+](=O)[O-])c2)=NO1 (stereo not drawn)	-7%	1%

Next part.
SMILES | StopGo reporter | SARS PLpro yeast | RE007 growth inh
COC(=O)[C@]1(C)N[C@H](CN(C)S(=O)(=O)c2ccc(OC)cc2)[C@@H]2C(=O)N(C)C(=O)[C@@H]21 | -8% | 2% | 0%
Cc1ccccc1NC1(C#N)CCCCC1 | 5% | -1% | 2%
COC(=O)[C@]1(Cc2ccccc2)N[C@H](CN(C)C(=O)c2ccc(C(C)(C)C)cc2)[C@@H]2C(=O)N(Cc3ccccc3)C(=O)[C@@H]21 | -27% | 8% | -4%
COCCNC(=O)C1CC(c2ccccc2C(F)(F)F)=NO1 (stereo not drawn) | 1% | 1% | -24%
O=C(Nc1cccc(S(=O)(=O)N2CCOCC2)c1)C1CC1 | 2% | 1% | -5%
CCc1ccc(NC(=S)N(CCN(C)C)C(C)c2ccncc2)cc1 (stereo not drawn) | 38%[activator] | 0% | -1%
CCC[N+]1(CC#CC2(O)CCCCC2)CCOCC1 | 51%[activator] | 6% | 16%
COc1cc(OC)cc(-c2c(-c3cccs3)c3cc(-c4ccc5c(c4)OCCO5)ccc3n2C)c1 | -18% | -1% | u
COc1ccc(NC(=O)COC(=O)/C=C/c2cccs2)c(OC)c1 | 7% | -12% | 6%
COCCSc1ccccc1C(=O)N1CCN(c2ccccc2OC)CC1 | -12% | 0% | 17%
O=C(Nc1cccc(S(=O)(=O)NC2=NCCC2)c1)c1cn(-c2ccccc2)nc1-c1ccc(F)cc1 | 25% | 3% | -2%
C#CCOCCOCCOCCNc1nc(N2CCN(C(=O)CCCCCCCCCCNC(=O)[C@H]([C@@H](C)CC)n3cc(CCCCN=C(N)N)nn3)CC2)nc(N2CCN(C(=O)CCCCCCCCCCNC(=O)[C@H](CO)n3cc(CCCCCN)nn3)CC2)n1 | u | -3% | 2%
O=C(COC(=O)c1ccc(F)cc1)NC1CC1 | -4% | -4% | 9%
Cc1ccsc1C(=O)OCC(=O)NC1CCCCC1C (stereo not drawn) | 19% | 2% | -2%
CC1CCCCC12NC(=O)N(CC(=O)N1CCN(C(=O)c3ccco3)CC1)C2=O (stereo not drawn) | 0% | 3% | 6%
CC1(c2cccc(Br)c2)NC(=O)N(CC(=O)N2CCN(C(=O)c3ccco3)CC2)C1=O (stereo not drawn) | -17% | -5% | -9%
CCN1C(=O)[C@H]2[C@H]3CN=C(SCc4ccc(C#N)cc4)N3[C@@](C)(C(=O)OC)[C@H]2C1=O | -18% | -1% | 1%
COc1ccc(-c2sc3cc4c(cc3c2C#Cc2ccc(N)cc2)OCO4)cc1 | 6% | 3% | -17%
CC(C)=CCC[C@](C)(O[C@@H]1O[C@H](CO[C@@H]2OC[C@H](O[C@@H]3OC[C@@H](O)[C@H](O)[C@H]3O)[C@H](O)[C@H]2O)[C@@H](O)[C@H](O)[C@H]1O)C1CC[C@]2(C)C1[C@H](O)CC1[C@@]3(C)CC[C@H](O)C(C)(C)C3[C@@H](O)C[C@]12C (stereo partly drawn) | -14% | 4% | -2%
COc1ccc(NC(=O)c2ccc3c(c2)OCO3)cc1S(=O)(=O)N1CCOCC1 | -3% | 2% | 4%

A draw from above in order of formula weight, low to high.
SMILES | StopGo reporter | SARS PLpro yeast | RE007 growth inh
O=C(COC(=O)c1ccc(F)cc1)NC1CC1 | -4% | -4% | 9%
Cc1ccsc1C(=O)OCC(=O)NC1CCCCC1C (stereo not drawn) | 19% | 2% | -2%
COc1ccc(-c2sc3cc4c(cc3c2C#Cc2ccc(N)cc2)OCO4)cc1 | 6% | 3% | -17%
CC1CCCCC12NC(=O)N(CC(=O)N1CCN(C(=O)c3ccco3)CC1)C2=O (stereo not drawn) | 0% | 3% | 6%
O=C(Nc1cccc(S(=O)(=O)NC2=NCCC2)c1)c1cn(-c2ccccc2)nc1-c1ccc(F)cc1 | 25% | 3% | -2%

Entries of single compounds, quoted from the list. Order of values: StopGo reporter, SARS PLpro yeast, RE007 growth inh
`Cc1ccc(S(=O)(=O)N2CCN(C(=O)Cn3cnc4c3c(=O)n(C)c(=O)n4C)CC2)cc1C` is listed as -1%, 1%, -2%
`CC(C)=CCC[C@](C)(O[C@@H]1O[C@H](CO[C@@H]2OC[C@H](O[C@@H]3OC[C@@H](O)[C@H](O)[C@H]3O)[C@H](O)[C@H]2O)[C@@H](O)[C@H](O)[C@H]1O)C1CC[C@]2(C)C1[C@H](O)CC1[C@@]3(C)CC[C@H](O)C(C)(C)C3[C@@H](O)C[C@]12C` (stereo partly drawn) is listed as -14%, 4%, -2%
`COc1ccc(C2CC(c3cccc(C(F)(F)F)c3)=NN2c2ccc(S(N)(=O)=O)cc2)cc1` (stereo not drawn) is listed as 0%, 5%, -5%
`CCN(C[C@H]1N[C@@](Cc2ccccc2)(C(=O)OC)[C@H]2C(=O)N(Cc3ccccc3)C(=O)[C@@H]12)C(=O)Nc1ccc(C)cc1` is listed as 11%, -8%, -2%

Remaining list, next part.
SMILES | StopGo reporter | SARS PLpro yeast | RE007 growth inh
CCC(C)(C)C1CCc2[nH]nc(C(=O)NC3CCCCC3)c2C1 (stereo not drawn) | 0% | 0% | -1%
CCN1C(=O)[C@@H]2[C@@H](c3ccc(-c4cccc(Cl)c4)c(OC)c3)N3CCCC[C@@]3(C(=O)OC)[C@@H]2C1=O | u | 1% | 10%
C=CC[C@H](CC(=O)N(CCO)Cc1ccccc1)C(=O)N[C@@H](COC(=O)[C@@H](CC=C)CC(=O)OC(C)(C)C)Cc1c[nH]c2ccccc12 | u | 4% | 5%
CN(C(=O)CCn1c(=S)oc2ccccc21)c1ccc(F)cc1 | -5% | -3% | -4%
COc1cc(/C=C/c2ccc3cccc(OC)c3n2)c(O)c([N+](=O)[O-])c1 | -23% | -1% | -10%
O=C(NNC(=O)c1ccc(Br)s1)c1csc(N2CCOCC2)n1 | 0% | 2% | 1%
Cc1ccccc1NC(=O)Cc1nc(COC(=O)Cc2ccccc2)cs1 | 3% | -6% | 3%
COc1cc2c(cc1OC)C1[C@H]3C(=CC[C@H]1OC2O)CCN3C (stereo partly drawn) | -4% | 7% | -9%
COC(=O)c1ccc(NC(=O)NC(=O)Oc2ccccc2)cc1 | -17% | 3% | 1%
CC(C)(C)c1cc(CCC(=O)NNC(=O)c2ccncc2)cc(C(C)(C)C)c1O | 29% | -9% | -4%
COc1ccc(-c2cc3ccc(OC)cc3cn2)cc1 | -50% | 2% | -17%
COc1ccc(C(=O)c2c3ccccc3[n+]([O-])n2Cc2ccc(C(N)=O)cc2)cc1 | 16% | -4% | -16%
Cc1ccc(S(=O)(=O)N2[C@@H](c3ccccc3F)C(C(=O)O)=CC[C@H]2c2cccc(Cl)c2)cc1 | 16% | 2% | 8%
CCN(CC)C(=O)c1nc[nH]c1C(=O)N1CCN(c2ccccc2)CC1 | -7% | 0% | -10%
Cc1ccc(C)c(NC(=S)N2CCCCC2CO)c1 (stereo not drawn) | 9% | 0% | -2%
CC1CCCCC12NC(=O)N(CC(=O)N1CCN(C(=O)c3cccs3)CC1)C2=O (stereo not drawn) | -9% | -1% | -14%
CCOc1ccc(NC(=O)COC(=O)CNC(=O)c2ccc(-c3ccccc3)cc2)cc1 | 23% | 0% | 2%
CCN(CC)S(=O)(=O)c1ccc(/C=C/C(=O)OCC(=O)Nc2cccnc2Cl)cc1 | -7% | 7% | 5%
Cc1nc2ccc(NC(=O)CSc3ccccc3)cc2s1 | 50%[activator] | -3% | -11%
CCN(CC(=O)Nc1ccc(NC(C)=O)cc1)C(=O)c1ccccc1SCC(=O)N1CCCC1 | -24% | 2% | -1%
O=C(Nc1ccccc1)C1CCN(S(=O)(=O)c2cccs2)CC1 | -1% | -1% | 5%
CC(=O)N1CCC[C@H]1C(=O)O | -4% | 0% | 7%
O=C(Nc1cccc(-n2cnnn2)c1)c1ccc(C(F)(F)F)cc1 | -6% | 2% | 5%
CSCCC(NC(=O)COc1ccccc1)C(=O)N1CCC(C(N)=O)CC1 (stereo not drawn) | -12% | -7% | 6%
O=C(COC(=O)CCc1nc2ccccc2c(=O)[nH]1)Nc1ccccc1OC(F)F | -14% | 0% | 15%
CC(C)(C)OC(=O)C[C@H]1C/C=C\C[C@@H](CC(=O)N[C@H](CO)Cc2ccccc2)C(=O)N2CCC[C@H]2COC1=O | 0% | 3% | 1%
C/C(=N\NC(=O)CNc1cccc2ccccc12)c1ccccc1 | -2% | 0% | 0%
COCCN(C(=O)c1cc2c(s1)CCCCC2)c1c(N)n(CC(C)C)c(=O)[nH]c1=O | -9% | 0% | -11%

Not all compounds are listed, so the mix of outcomes need not match the whole.
